# Compound activity (PubChem BioAssay)
# Rango complex inh: qHTS Assay for Inhibitors of Rango (Ran-regulated importin-beta cargo) - Importin beta complex formation | Rango CFP/YFP FRET sensor + importin beta, 45 min | Potency, µM (titrated, usually from 92.2 µM), for inactives: at the highest dose inhibition of complex formation | hit rate 0.031% among 340,000; active = rising FRET ratio curve, often small or poorly fitted; inconclusive = mostly compound fluorescence or quenching in the first reads; inactive = flat curves in all reads;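 note: potency is the fitted concentration of half-maximal effect; 0% = DMSO wells and 100% = buffer wells lacking importin beta; nearly all actives have a fitted effect of over 15% in size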
#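 Inhibition scored from the CFP 486 nm/YFP 530 nm FRET ratio 45 min after adding 0.125 microM importin beta to 50 nM Rango biosensor preincubated 5 min with compound (room temperature, PBS with DTT, Tween-20, BSA). No-importin wells as positive control.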
# Rango release inh: qHTS Assay for Inhibitors of RanGTP induced Rango (Ran-regulated importin-beta cargo) - Importin beta complex dissociation | AID 540253, 2011 | hit rate 0.071% among 340,000 | Potency, µM (highest dose often 46.1 µM), for inactives: at the highest dose activity change, negative = inhibition | Snurportin-1 (Homo sapiens) + GTP-binding nuclear protein Ran (Homo sapiens) + Importin … | Biochemical FRET Rango-importin beta, RanGTP-induced dissociation; active means falling FRET ratio curve, often poorly fitted, with flat reads before Ran was added; inconclusive means other falling curves, or compound fluorescence or quenching; inactive means flat or rising ratio curve;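 note: potency is the fitted concentration of half-maximal effect; % of control where 0% means no effect; nearly all actives have a fitted effect of over 45% in size; -100% = wells without RanGTP and RCC1; the record marks most hits as doubtful in a second field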
#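 FRET read at 45 min, room temperature: inhibitors block the CFP/YFP signal rise when RanGTP (0.6 uM Ran, 2 mM GTP, 0.2 uM RCC1) frees Rango (0.1 uM) from importin beta (0.25 uM). Pre-read after 5 min compound exposure flags interference.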
# miR-21 reporter: qHTS Assay for Modulators of miRNAs and/orActivators of miR-21. HeLa miR-21 FLuc reporter, luciferase, 48 h. Potency, µM (highest dose often 38.3 µM), for inactives: at the highest dose reporter change, positive = more light. 340,000 tested, under 10 active; active = well fitted rising curve with a large enough effect; inconclusive = small, poorly fitted or top-dose-only effect; inactive = no such curve, though single readings can be large or run the other way;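 note: % of control where 0% means no effect; miR-21 action dims this reporter so a rising signal means less miR-21 action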
#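 HeLa cells endogenously expressing miR-21, stably carrying CMV-driven firefly luciferase with a downstream miR-21 binding site, 2000 cells/well. Titrations up to approximately 40 uM, 48 hours; luciferase luminescence read.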
# GLA inh pH 4.5: qHTS Assay for Inhibitors of Human alpha-Galactosidase at pH 4.5. activity change, negative = inhibition, % at 105 µM. AID 1467, 2008. 230,000 tested, under 10 active. purified enzyme, 4-MU-alpha-Gal fluorescence, pH 4.5; inconclusive = small, poorly fitted or top-dose-only inhibition, or a rising curve; inactive = flat fitted curve, though single readings scatter; no compound was filed as active;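 note: 0% = full activity with enzyme and -100% = basal without enzyme; dose as in the result columns while the protocol names 77 µM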
# Target sequence (P06280 whole entry, looked up): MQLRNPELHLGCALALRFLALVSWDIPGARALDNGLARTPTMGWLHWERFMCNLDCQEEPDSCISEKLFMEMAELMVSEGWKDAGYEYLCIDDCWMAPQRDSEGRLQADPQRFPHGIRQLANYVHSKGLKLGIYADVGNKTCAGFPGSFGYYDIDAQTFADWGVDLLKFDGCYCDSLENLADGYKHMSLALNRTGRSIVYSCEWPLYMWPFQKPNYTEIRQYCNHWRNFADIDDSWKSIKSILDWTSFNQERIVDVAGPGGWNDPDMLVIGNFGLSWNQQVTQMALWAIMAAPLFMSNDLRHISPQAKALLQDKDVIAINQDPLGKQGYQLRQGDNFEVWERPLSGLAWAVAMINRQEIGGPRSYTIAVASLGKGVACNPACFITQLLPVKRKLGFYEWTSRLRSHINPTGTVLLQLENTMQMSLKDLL
# Numbers without * were called inactive; u = inconclusive; x = no result given; & = joins results of further samples.
miR-21 reporter	Rango complex inh	Rango release inh	GLA inh pH 4.5	compound
x	0.1%	-9%	x	CCCN(CC(=O)Nc1ccccc1C)C(=O)/C=C/c1ccc(OCC)c(OC)c1
-10%	1.3%	10%	2	Cc1occc1-c1nnc(SCC(=O)c2ccc(Cl)cc2)n1C
3%	u	u	x	OCCCNc1ncnc2sc3c(c12)CCN(Cc1ccccc1)C3
-76%	1.5%	-10%	x	Cc1c(C=O)c2cc(OCc3ccccc3)ccc2n1C
-24%	0.5%	23%	3	N#Cc1nc(COc2cccc(Cl)c2)oc1NCc1ccncc1
-1%	-0.6%	17%	-10	O=C(COC(=O)CNC(=O)c1ccc(Br)o1)Nc1ccccc1OC(F)F
-7%	3.2%	-14%	7	Cc1oc2c(c1C(=O)O)C(=O)c1ccccc1C2=O
1%	-0.8%	-18%	-1	CCn1cc(C(=O)OCC(=O)c2ccc(Cl)cc2)c(=O)c2ccc(C)nc21
-3%	u	-15%	0	N=c1oc2ccccc2cc1-c1nc(-c2ccc(Cl)cc2)cs1
u	3.0%	5%	2	Cc1ccc(NC(=S)NC(=O)c2ccc(F)cc2)cc1S(=O)(=O)Nc1ccccc1Cl
-8%	0.5%	6%	11	O=C(CSc1nnnn1-c1ccccc1)Nc1nsc(-c2ccc(Cl)cc2)n1
-5%	-0.6%	0%	-2	COc1ccc(OC)c(NC(=O)CCN2CCCC(C)C2)c1 (stereo unspecified)
x	6.1%	21%	x	Cc1cc(C)cc(NC(=O)CSc2nc(=O)n3cc(C)ccc3n2)c1
-6%	-1.3%	-13%	-7	CN(CC(=O)Nc1ccc(F)cc1)C(=O)COc1ncnc2ccccc12
-3%	1.1%	-11%	1	CCn1c(CCNC(=O)c2cccs2)n[nH]c1=S
-4%	-2.6%	1%	x	CC1CN(C(=O)CCC(=O)NC2CCCCC2)c2ccccc2S1 (stereo unspecified)
1%	u	-17%	-12	COc1ccccc1NS(=O)(=O)c1cc(NC(=S)Nc2cc(C)cc(C)c2)ccc1Cl
2%	-2.4%	1%	-16	CC1Cc2ccccc2N1C(=O)CSc1nnnn1C(C)C (stereo unspecified)
-13%	-0.9%	-2%	-4	CCCCS(=O)(=O)N1CN(S(=O)(=O)CCCC)C2NC(=O)NC21 (stereo unspecified)
-1%	4.3%	5%	x	CCOc1ccc(CN2CCNC(=O)C2CC(=O)N(C)Cc2nonc2C)cc1 (stereo unspecified)

miR-21 reporter	Rango complex inh	Rango release inh	GLA inh pH 4.5	compound
-21%	3.3%	4%	5	Cc1c(NC(=O)CSc2ccc(Cl)cc2)cccc1-c1nc2cc(Cl)ccc2o1
1%	0.3%	-5%	11	CCOC(=O)C1CCN(C(=O)c2cc(S(=O)(=O)N3CCOCC3)c(Cl)cc2Cl)CC1
-6%	u	-13%	-8	Cn1cccc1/C=C1\SC(=S)N(NC(=O)c2ccc(Cl)cc2)C1=O
15%	-5.8%	0%	-1	Cc1ccc2c(=O)[nH]c(Cc3ccccc3C(=O)O)nc2c1
-2%	0.1%	7%	1	Cc1nc2oc3c(NCC4CCCO4)ncnc3c2c2c1COC(C)(C)C2 (stereo unspecified)
-20%	-0.1%	-4%	-2	CC(C)(C)C1CCC(=NNc2ccc(S(N)(=O)=O)cc2[N+](=O)[O-])CC1 (stereo unspecified)
x	-0.3%	1%	x	CC(Oc1ccc(Br)cc1)C(=O)NCC(C)(C)N1CCOCC1 (stereo unspecified)
x	2.1%	-18%	x	CCN(CC(=O)Nc1ccccc1C(F)(F)F)C(=O)c1ccccc1Cc1ccccc1
10%	u	-2%	-2	Cc1cccc(NC(=O)c2ccc(N(C)C3CCCCC3)c([N+](=O)[O-])c2)n1
x	-0.8%	3%	x	CCCC1(c2ccsc2)NC(=O)NC1=O (stereo unspecified)
0%	-0.7%	-23%	x	COc1ccccc1N1CCN(c2ncnc3sc(C)c(-c4ccccc4)c23)CC1
-8%	x	x	5	Cc1cccc(NC(=O)CSc2nnc(NC(=O)CN3CCCCC3)s2)c1
-22%	8.7%	3%	1	COc1cc(/C=N/Nc2nc(=O)[nH]nc2C)cc([N+](=O)[O-])c1O
23%	0.8%	-10%	8	O=S(=O)(c1ccc2ccccc2c1)N1CCN(C(=S)Nc2ccc(F)c(Cl)c2)CC1
x	1.1%	3%	x	COC(=O)[C@@]12CCCCN1[C@H](c1ccc(SC3CCCCC3)cc1)[C@@H]1C(=O)N(C)C(=O)[C@@H]12
0%	-2.0%	-13%	5	CC(C)NOC(=O)c1ccc(Cl)cc1
-2%	0.3%	-11%	-2	O=C(CN(Cc1ccccc1)C1=NCCS1)c1ccc(Cl)cc1
x	-1.3%	-3%	x	Cc1csc(NC(=O)c2cc(C)on2)n1
6%	2.3%	26%	-6	Cn1c(=O)c2c(nc(Sc3ncnn3CC(=O)N3CCOCC3)n2C)n(C)c1=O
-7%	-3.9%	-2%	0	Cc1cc(-c2ccco2)n(CC(=O)NCCN(C)C)n1

miR-21 reporter	Rango complex inh	Rango release inh	GLA inh pH 4.5	compound
0%	1.9%	1%	x	CCOC(=O)C1CCCN(C(=O)CCNC(=O)Cn2ccc3ccccc3c2=O)C1 (stereo unspecified)
2%	1.2%	-18%	x	Cc1ccc2c(c1)C(c1ccccc1)N(C(=O)c1cccc([N+](=O)[O-])c1)CC(=O)N2 (stereo unspecified)
1%	0.4%	0%	x	CCN(Cc1cccc(OC)c1)CC1CCCN(CCc2cccc(OC)c2)C1 (stereo unspecified)
-2%	u	-27%	x	COCCCNc1nc2ccccc2nc1NS(=O)(=O)c1cccc(Cl)c1
1%	2.2%	11%	6	O=C1c2ccccc2C(=O)N1CC1CCCO1 (stereo unspecified)
6%	-4.4%	-9%	3&-2&8&-1	CCCCNc1cc(C(=O)O)cc(S(N)(=O)=O)c1Oc1ccccc1
-7%	0.0%	18%	-10	Cc1ccc(NC(=O)c2ccc3ccccc3n2)cc1S(=O)(=O)N1CCOCC1
-12%	-3.5%	-6%	-4	O=C(CCn1c(=O)oc2ccccc21)N1CCN(c2ccccc2F)CC1
-5%	0.5%	-9%	0	CSc1nncc(-c2ccccc2)n1
10%	2.6%	2%	1	CCCOC(=O)c1ccc(Oc2cn[nH]c2-c2ccc(OCC(=O)NN)cc2O)cc1
-36%	-0.9%	12%	-8	Cn1cc(CNC(=O)c2sc3cccc(Cl)c3c2Cl)cn1
-8%	-2.0%	6%	x	CC(=O)C1=C(O)C(=O)N(c2ccccn2)C1c1ccccc1[N+](=O)[O-] (stereo unspecified)
x	9.3%	4%	x	Cn1cnc2c(cnn2C)c1=N
-8%	0.1%	-4%	-7	O=C(CCC1CCCCC1)Nc1c[nH]c(=O)[nH]c1=O
-12%	-3.8%	-1%	x	Cc1ccc(NC(=S)NC2CCCC2)c(C)c1
x	2.7%	0%	x	CCN(CC)C(=O)Cn1cc(S(=O)(=O)CC(=O)NCc2ccc(C)cc2)c2ccccc21
-4%	0.3%	5%	u	CC1CCCCN1CCCNC(=O)c1ccc2c(=O)n(CCc3ccccc3)c(=O)[nH]c2c1 (stereo unspecified)
1%	-4.6%	5%	x	O=C(COc1ccc(Cl)cc1)NNC(=O)c1ccccc1C(=O)O
5%	-2.3%	0%	1	CCN(CC)S(=O)(=O)c1ccc(Cl)c(NC(=O)COC(=O)c2ccc([N+](=O)[O-])o2)c1
3%	2.1%	-19%	-9	COc1cccc(NC(=O)C(c2ccccc2)N2CCN(c3ccccn3)CC2)c1 (stereo unspecified)

miR-21 reporter	Rango complex inh	Rango release inh	GLA inh pH 4.5	compound
-29%	-0.6%	3%	x	Cc1oc2cc3oc(=O)c(CCC(=O)NCCCN4CCOCC4)c(C)c3cc2c1C
5%	-0.3%	-4%	-2	OCCNC(=S)Nc1ccc2c(c1)OCCO2
-6%	-0.6%	10%	-3	CCNC(=S)Nc1cc(OCC)c(N2CCOCC2)cc1OCC
x	1.5%	42%	x	CCOC(=O)c1c(NC(=O)COC(=O)c2ccc(C)s2)sc2c1CC(C)(C)NC2(C)C
-3%	-1.2%	-6%	-4	Nc1nc(-c2ccco2)nn1C(=O)c1ccccc1
-41%	u	u	-17	N#C/C(=C/c1cccs1)c1nc2ccccc2[nH]1
x	-6.9%	0%	x	COc1ccc(S(=O)(=O)N2CCCCCC2)cc1NC(C)C(=O)Nc1ccc(NC(C)=O)cc1 (stereo unspecified)
-37%	-0.5%	-3%	-7	CCOc1ccc2nc(NC(=O)C3=NNC(=O)CC3)sc2c1
x	-0.8%	8%	x	Cc1ccc(S(=O)(=O)N2[C@@H](c3ccc(F)cc3)C(C(=O)O)=CC[C@H]2c2ccc(Cl)cc2)cc1
1%&0%	1.9%	17%	x	CCCCN(CCCC)CCCNC(=O)Cn1cc2c(n1)-c1c(oc(C(=O)N3CCCC3)c1C)CC2
16%	u	-22%	-5	N#CC1=C(N)Oc2cc3c(cc2C1c1ccc(Cl)cc1)OCO3 (stereo unspecified)
-45%	-0.1%	-12%	-7	CN(C)S(=O)(=O)c1cccc(C(=O)N=C2N=C3C=CC(Cl)=CN3Cc3ccccc32)c1
27%	0.1%	-5%	5	CCCN1CCC(=O)N(CCSc2ccc(OC)cc2)CC1
x	-0.9%	-20%	x	COc1ccc(NS(=O)(=O)c2ccc(-c3ccccn3)s2)cc1
1%	u	-27%	1	c1ccc(CSc2nnc(-c3ccco3)c(-c3ccco3)n2)cc1
6%	-3.4%	-14%	2	COc1cc(/C=N/NC(=O)c2ccncc2)ccc1OC(=O)c1ccc([N+](=O)[O-])cc1
5%	-0.2%	-8%	-5	Cc1cc(C)cc(NC(=O)Cn2c(=O)oc3cc(S(=O)(=O)N4CCC(C)CC4)ccc32)c1
0%	-0.1%	1%	-3	O=C(CCN1C(=O)/C(=C/c2cccc(Br)c2)SC1=S)Nc1cccnc1
-6%	-1.1%	8%	6	COc1cccc(CC(NC(C)=O)C(=O)NC2CCN(c3c(Cc4ccccc4)c(C)nc4ncnn34)CC2)c1OC (stereo unspecified)
x	-4.4%	-1%	x	CC[C@]12c3[nH]c4cc(-c5ccco5)ccc4c3CCN1C(=O)[C@@H](CC(=O)NCCCN(C)C)C[C@@H]2C(=O)N1CCN(C(=O)C2CC2)CC1

# Looked up by compound from the entries so far:
miR-21 reporter	Rango complex inh	Rango release inh	GLA inh pH 4.5	compound
5%	-0.2%	-8%	-5	Cc1cc(C)cc(NC(=O)Cn2c(=O)oc3cc(S(=O)(=O)N4CCC(C)CC4)ccc32)c1
27%	0.1%	-5%	5	CCCN1CCC(=O)N(CCSc2ccc(OC)cc2)CC1
-45%	-0.1%	-12%	-7	CN(C)S(=O)(=O)c1cccc(C(=O)N=C2N=C3C=CC(Cl)=CN3Cc3ccccc32)c1
x	-0.8%	8%	x	Cc1ccc(S(=O)(=O)N2[C@@H](c3ccc(F)cc3)C(C(=O)O)=CC[C@H]2c2ccc(Cl)cc2)cc1
-37%	-0.5%	-3%	-7	CCOc1ccc2nc(NC(=O)C3=NNC(=O)CC3)sc2c1

# More results:
miR-21 reporter	Rango complex inh	Rango release inh	GLA inh pH 4.5	compound
-13%	-0.5%	8%	0	COc1cc([N+](=O)[O-])ccc1NC(=O)c1cccc(NC(=O)C(C)C)c1
1%	-0.9%	15%	-6	CN(C)/C=C1\NC(=S)N(c2ccccc2)C1=O
-3%	0.7%	-18%	-3	CCOC(=O)c1ccc(NC(=S)NNC(=O)COC)cc1
x	-1.7%	-7%	x	CC(OC(=O)CNC(=O)c1sc2ccccc2c1Cl)C(=O)NC1(C#N)CCCCC1 (stereo unspecified)
-47%	-3.3%	8%	4	Cc1cc(/C=N/NC(=O)c2cccc([N+](=O)[O-])c2)c(C)n1-c1ccccc1
-13%	x	x	-1	COc1ccc(S(=O)(=O)C(C#N)c2nc3ccccc3nc2N2CCC(C)CC2)cc1 (stereo unspecified)
-3%	-0.1%	0%	x	O=C(Cc1ccc(F)cc1)Nc1ccccc1N1CCCC1

# Some of the compounds tested; the hit share may differ from the screen's.
